Screening results as filed in PubChem.
Mtb bLac sens: beta-lactam sensitization of Mtb H37Rv | inhibition, % at 25 µM | AID 434955 | M. tuberculosis H37Rv growth with meropenem, percent inhibition; hits of this screen are not shown here | 0.27% of 330,000 active;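 active = about 74% or more and at least 40 points above the plate without the antibiotic, then above 30% in a dose series; inconclusive = first-round hits that could not be retested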;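 also: growth measured after seven days incubation then overnight dye step; 0% = bacteria only wells and 100% = bacteria with antibiotic; twin plates without the antibiotic show which effects depend on it; some results filed as inactive read as strong as hits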
RecA splice inh: inhibitors of M. tuberculosis RecA intein splicing; AID 2221; inhibition, %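 (about 9 µM by stock and volumes)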; cell-free RecA intein splicing, fluorescence; 0.75% of 290,000 active; P9WHJ3; in the data active = inhibition above about 30%; inconclusive = no clear call, values can overlap the other calls;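 also: 0% = vehicle wells and 100% = reference inhibitor control wells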
Target sequence (P9WHJ3 whole entry, looked up, canonical isoform): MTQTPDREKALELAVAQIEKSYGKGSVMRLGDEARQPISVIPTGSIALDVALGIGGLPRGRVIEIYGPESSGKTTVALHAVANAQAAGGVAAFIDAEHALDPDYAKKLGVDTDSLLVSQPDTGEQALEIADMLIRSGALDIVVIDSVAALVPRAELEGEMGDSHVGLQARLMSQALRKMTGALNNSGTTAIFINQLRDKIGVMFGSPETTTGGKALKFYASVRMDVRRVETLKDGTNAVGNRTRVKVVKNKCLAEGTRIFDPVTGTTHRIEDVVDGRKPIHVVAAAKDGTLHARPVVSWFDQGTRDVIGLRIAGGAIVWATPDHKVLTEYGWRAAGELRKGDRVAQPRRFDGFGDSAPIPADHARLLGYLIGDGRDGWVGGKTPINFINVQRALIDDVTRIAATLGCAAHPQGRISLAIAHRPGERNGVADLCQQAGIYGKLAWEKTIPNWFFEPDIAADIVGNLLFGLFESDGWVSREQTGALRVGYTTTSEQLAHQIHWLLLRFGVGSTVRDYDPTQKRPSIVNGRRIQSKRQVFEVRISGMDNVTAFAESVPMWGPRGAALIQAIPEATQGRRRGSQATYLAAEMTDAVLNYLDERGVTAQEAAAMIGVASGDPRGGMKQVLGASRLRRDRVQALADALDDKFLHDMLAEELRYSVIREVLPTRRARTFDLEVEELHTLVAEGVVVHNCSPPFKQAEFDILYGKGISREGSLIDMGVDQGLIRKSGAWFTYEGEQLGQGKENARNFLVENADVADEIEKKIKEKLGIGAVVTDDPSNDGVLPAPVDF
Arbovirus anti: arbovirus infection inhibition; arbovirus infection cell-based antiviral screen; inhibition, % at 10 µM; 0.37% of 200,000 active;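 active = inhibition from about 30%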;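 also: bluetongue infection of BSR cells; cell survival read as ATP light after 72 h; 0% = infected wells without compound and 100% = uninfected wells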
YopH PTP inh: YopH (Yersinia) phosphatase inhibition | inhibition, %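 (about 10 µM by stock and volumes)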 | fluorescence Ex485/Em525 | AID 898 | 0.16% of 140,000 active;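 active = inhibition of 50% or more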;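 also: controls were vehicle for no effect and minimum signal wells for full effect; inactives centre near -20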
Mtb growth: M. tuberculosis H37Rv growth inhibitors, H37Rv strain (AID 1626); 0.95% of 220,000 active; M. tuberculosis H37Rv growth inhibition; higher % means a stronger effect; inhibition, % at 10 µM, or IC50 in µM where a hit was titrated;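 active = confirmed in a dose series; inconclusive = inhibition above 80% but not taken into the dose series; inactive = below 80% or under 30% at every dose of the series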;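 also: bacteria incubated seven days before Alamar blue readout; 0% = bacteria only wells and 100% = bacteria with antibiotic wells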
Arbovirus anti repeat: second read-out of Arbovirus anti, no call of its own (marks repeat the call); inhibition, %; measured here: 10K subset replicate screen; many hits read low in the repeat;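 first of two repeat runs on a subset; 0% = infected and 100% = uninfected wells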
The depositor's hits bear a star; ? = inconclusive; . = no result given. The list is partial (hit frequency here may not be typical).

SMILES	Mtb bLac sens	RecA splice inh	Arbovirus anti	YopH PTP inh	Mtb growth	others
CCOc1ccccc1NC(=O)CSc1nnc(-c2ccccc2Cl)n1Cc1ccco1	4	7.6	8	-34	4%
CCOC(=O)C1=C(CCc2ccccc2)NC(=O)NC1c1ccc(Br)cc1 (stereo unspecified)	-3	0.1	.	.	.
COc1ccc(Cn2c(-c3ccc(Br)cc3)c[n+]3ccccc23)cc1	5	2.7	9	-36	7%
CSc1nnc2c3ccccc3c3ccccc3c2n1	.	5.0	-19	17	.
CCc1ccccc1N1CN(Cc2ccco2)CNC1=S	-7	-2.3	.	.	-7%
COc1ccccc1CNC(=O)COc1ccc([N+](=O)[O-])cc1	-11	1.5	-1	.	3%
Cc1nn(C)cc1NC(=O)CCSc1nc(-c2ccco2)cc(C(F)(F)F)n1	-3	2.6	1	-9	-3%
COc1cccc(NC2SC(=O)N(c3ccccc3)C2=O)c1 (stereo unspecified)	0	-2.2	1	-25	7%
c1ccc2c(c1)CCN(Cc1nnnn1Cc1ccc3c(c1)OCO3)C2	-8	1.6	0	40	5%
Cc1cccc(C)c1OCc1nnc2c3cnn(C)c3ncn12	6	16	-7	-28	-10%
COc1ccc(CC(=O)N(C)Cc2cccc(F)c2)cc1S(=O)(=O)N1CCOCC1	4	-4.2	.	.	.
Cc1cc(C)c(-n2c(O)c(/C=N/NC(=O)c3ccncc3)c(=O)[nH]c2=O)c(C)c1	99	3.5	.	.	?
Cn1c(SCC(=O)OC2CCCCC2)nnc1-c1ccc2c(c1)OCO2	.	-1.7	5	-41	34%
CCOC(=O)C(C)Oc1ccc2c(-c3cccc([N+](=O)[O-])c3)cc(=O)oc2c1 (stereo unspecified)	95	0.0	-7	-23	5%
Cc1cc(C)n(-c2ccc(C(=O)Nc3ccc(S(=O)(=O)N(C)C)cc3)cc2)n1	-4	-2.8	-5	-20	0%
CCOC(=O)c1c(N2C(=O)Nc3cc(Cl)c(Cl)cc3N2O)sc2c1CCCCC2	-22	.	7	26	-1%
CCOC(=O)c1cc(-c2ccccc2)sc1NC(=O)CSc1nncs1	1	3.4	2	10	0%
COc1ccccc1CCc1nnc(CCC(=O)NCC[C@@H]2C[C@@H]3C=C[C@H]2C3)o1	-16	2.7	9	.	5%
CCCCN1C(=N)C(CC)(CC)C(=O)NC1=O	8	-1.9	4	-4	-2%
CS(=O)(=O)Nc1cc2c3c(c1)CCC(=O)N3CCC2	2	-8.1	.	.	.

Next section; the last two above are carried over.
SMILES	Mtb bLac sens	RecA splice inh	Arbovirus anti	YopH PTP inh	Mtb growth	others
CCCCN1C(=N)C(CC)(CC)C(=O)NC1=O	8	-1.9	4	-4	-2%
CS(=O)(=O)Nc1cc2c3c(c1)CCC(=O)N3CCC2	2	-8.1	.	.	.
Cc1ccc([N+](=O)[O-])c2cccnc12	0	0.4	9	17	-9%
Cc1cc(NC(=O)CCC(=O)N(c2ccccc2)C(C(=O)NC2CCCC2)c2ccncc2)no1 (stereo unspecified)	0	0.1	9	-2	-12%
COc1ccc(-c2nn(-c3ccccc3)cc2C(=O)N2CCN(S(=O)(=O)c3ccccc3C#N)CC2)cc1	-3	29	.	.	.
COc1cc(NC(=O)COc2ccc(Cl)cc2)ccc1NC(=O)C(C)C	-5	1.5	.	.	-3%
Cc1cc(OC(=O)c2ccc(S(=O)(=O)N3CCCCC3)cc2)c([N+](=O)[O-])c(=O)[nH]1	2	-2.0	14	.	43%
CN1CCN2c3ccccc3CC3(C(=O)N(C)C(=O)N(C)C3=O)C2C1 (stereo unspecified)	47	1.9	.	.	-8%
COc1cc2c(cc1OC)C(=O)CCS2	1	-16	3	-2	-3%
Oc1ccc(/C=N/N=C(c2ccccc2)c2ccccc2)c(O)c1O	10	.	-19	-1	-6%
Cc1ccc(NC2=NCCCCC2)cc1C	-1	.	6	-7	-11%
Cc1cc(C)c2nc(N(CCN(C)C)C(=O)/C=C/c3cccs3)sc2c1	45	2.2	.	.	.
CCCN(CCC)CCN1C(=O)C2C(C(=O)Nc3ccc(C)cc3)C3C=CC2(O3)C1C(=O)NC1CCCCC1 (stereo unspecified)	-5	0.9	.	.	.
CCOC(=O)C1CCN(S(=O)(=O)c2ccc3[nH]c(=O)oc3c2)CC1	-9	-0.6	8	-54	-4%	Arbovirus anti repeat=7
Cc1ccc(NC(=O)C(C)OC(=O)Cn2cnc3ccccc3c2=O)cc1 (stereo unspecified)	1	-2.5	.	.	.
COc1ccc(Br)c(C(=O)N2CCN(S(=O)(=O)c3cccs3)CC2)c1	1	3.1	.	.	3%
CC(C)c1ccc(NC(=O)C(c2ccc3c(c2)OCO3)N2CCCCC2)cc1 (stereo unspecified)	2	8.8	-27	-31	21%
Cc1c(-c2ccccc2)[n+](=O)c2c(n1[O-])CCC2	0	-3.9	9	-28	-3%
Cc1ccc(NC(=O)CCNC(=O)c2ccco2)cc1	-5	0.5	-9	15	3%
CCCCOc1ncnc2c1[nH]c1ccccc12	15	0.4	18	-34	6%
Cc1cc(C(=O)NCCCN2CCN(c3cc(Cl)ccc3C)CC2)n(-c2ccccc2)n1	17	2.8	-12	8	15%
CCN1CCCC1CNC(=O)C(=O)NCc1ccccc1 (stereo unspecified)	-3	1.5	-8	.	.
c1cc[n+](CCC[n+]2ccccc2)cc1	-3	-0.6	.	.	.
CN(C(=O)COc1cccc(Br)c1)C1CCS(=O)(=O)C1 (stereo unspecified)	1	2.9	16	-3	2%
CCOC(=O)C1=C(C)NC(=O)CC1c1ccccc1 (stereo unspecified)	3	1.5	-3	12	-1%
O=C(Nc1ccc2c(c1)OCCO2)C1CCN(S(=O)(=O)c2ccc(Br)s2)CC1	-13	5.7	3	-27	4%
C=CCN1CCN(C(CCC)c2nnnn2Cc2ccco2)CC1 (stereo unspecified)	-2	3.0	0	.	-5%
Cc1nonc1C(=O)N1CCCC(N2CCN(c3ccc(F)cc3)CC2)C1 (stereo unspecified)	2	-3.2	.	.	.
COc1ccc(Nc2nc(-c3sc(N)nc3C)cs2)cc1	13	1.5	-17	18	3%
Cc1ccc(OCc2cc(C(=O)N(C)CCn3ccnc3C)no2)cc1C	-4	3.9	.	.	.
CCCn1nnc(NC(=S)NC(=O)C(C)(C)C)n1	14	-1.8	7	-19	-4%
CCCCn1c(SCC(=O)OCC)nnc1-c1ccoc1C	-3	-1.7	1	-55	-11%
COC(=O)c1ccc(OC(C)C(=O)c2ccc(C)cc2)cc1 (stereo unspecified)	9	3.4	-1	-27	9%
CCN(CC)c1ccc(NC(=O)COc2ccc(C)cc2)cc1	8	1.0	-16	-40	0%	Arbovirus anti repeat=-7
COCCCn1c(SCC(=O)N2CCOCC2)nc2ccccc2c1=O	0	0.8	.	.	.
CN1CCC(N(C)C(=O)CCc2nc3ccccc3c(=O)[nH]2)CC1	-8	-4.7	7	-11	-7%
CCOC(=O)c1sc(=S)n(C)c1NC(=O)c1cccc(Br)c1	-2	-0.7	.	.	-6%
Cc1cc(NC(=O)c2ccc(Br)cc2)nc(C)n1	-4	0.6	-13	.	-8%
CC(C(=O)Nc1ccccc1)N(C)Cc1cccs1 (stereo unspecified)	-1	-1.5	.	.	.
CCNS(=O)(=O)c1ccc(NC(=O)c2ccc(Cn3cc([N+](=O)[O-])cn3)o2)cc1	-6	-1.4	4	.	2%
COc1cc(CN2CCCN(C)CC2)cc([N+](=O)[O-])c1O	8	-4.6	.	.	.
O=C(Nc1ccccc1-c1ccccc1)c1ccco1	17	2.2	-6	-29	-1%
COc1cc(S(=O)(=O)NCC2OCCc3ccccc32)ccc1-n1cnnn1 (stereo unspecified)	-4	.	7	-26	3%
COC(=O)c1cc(NC(=O)C2CC(=O)NC(=NCc3ccc(OC)cc3)S2)cc(C(=O)OC)c1 (stereo unspecified)	-5	-20	-6	.	2%
O=C(CCc1ccccc1)NCc1cccnc1	0	-1.3	3	12	-4%
Cc1onc(-c2ccccc2)c1C(=O)NCc1ccc(F)cc1	-6	-1.0	.	.	.
COc1ccccc1Cn1c(-c2ccco2)nc2nc3ccccc3nc21	-4	-2.9	.	-5	-7%
CCCCN(C)CCNC(=O)C1CCN(S(=O)(=O)c2cccc3nsnc23)CC1	-3	1.1	.	.	.
CCOC(=O)c1ccc(N2C(=O)C3ON(c4ccccc4)C(c4ccco4)C3C2=O)cc1 (stereo unspecified)	0	2.4	-2	-2	0%	Arbovirus anti repeat=-2
NC(=O)c1ccccc1	-8	7.7	0	.	8%
CCc1nnc(NC(=O)CSc2ccc(-c3cccs3)nn2)s1	-3	0.9	2	.	-3%
CCC(C)N(C(=O)COC(=O)CCc1c[nH]c2ccccc12)C1CCS(=O)(=O)C1 (stereo unspecified)	-6	-12	5	-6	.
CCOC(=O)c1cnc2c(C#N)cnn2c1N	-2	-1.6	-6	.	-8%
COc1ccc(S(=O)(=O)NCC2CCC(C(=O)NCCC(C)C)CC2)cc1 (stereo unspecified)	-4	2.3	-2	-28	-1%
Cc1cccc(N(C)S(=O)(=O)c2ccc(-c3cc(C)no3)s2)c1	0	11	.	.	.
N#Cc1cc2c(nc1SC1CC(=O)N(c3ccccc3)C1=O)CCC2 (stereo unspecified)	0	.	6	-36	-2%
CCC(=O)C1=C(O)C(c2cccc(Oc3ccccc3)c2)CCC1=O (stereo unspecified)	-4	2.2	1	.	-3%
COCCNC(=S)NNC(=O)CSCc1ccc(Cl)cc1Cl	-2	0.9	2	.	2%
CCOc1ccc(/C=N/NC(=O)c2cc(-c3cccn3C)n[nH]2)cc1	-5	-4.0	1	.	-7%
COc1ccccc1Oc1ccc(S(=O)(=O)NCc2ccccn2)cc1	-2	-1.7	-1	-9	3%
Cc1ccc(C)c(NC(=O)CCN2CCc3ccccc3C2)c1	-3	-0.5	16	.	15%
CCOC(=O)CSc1nc(C2CC2)cc(-c2ccc(F)cc2)c1C#N	2	0.5	5	-8	2%

Next entries:
SMILES	Mtb bLac sens	RecA splice inh	Arbovirus anti	YopH PTP inh	Mtb growth	others
CCOc1cc(C2Nc3ccccc3C(=O)N2c2ccccc2)ccc1O (stereo unspecified)	5	-1.4	17	-46	-8%
Cc1ccc(SCCC(=O)NC(C)(C)C)cc1	0	0.6	-5	-6	-11%
Cc1cc(C)cc(NC(=O)N2CCC(c3nc4ccccc4o3)CC2)c1	?	2.5	-13	-25	9%
COc1ccc(Nc2nnc(SCc3cc([N+](=O)[O-])cc4c3OCOC4)s2)cc1	-2	-1.6	4	-17	6%
O=C(NCC(c1cccs1)N1CCOCC1)c1cc([N+](=O)[O-])ccc1Cl (stereo unspecified)	8	-5.0	-7	-3	-3%
CCOc1ccc(C(=O)N(Cc2ccc(OC)cc2)Cc2cc3cc(OC)ccc3[nH]c2=O)cc1	0	2.6	-1	-20	-3%
COc1cc(C(=O)Nc2ccc(C(N)=O)cc2)c([N+](=O)[O-])cc1OC	6	-1.9	2	.	0%
CC1CN(C(=O)CCC(=O)NCc2ccccn2)c2ccccc2O1 (stereo unspecified)	-9	-1.9	.	.	.
COC(=O)C1=C(CS(=O)(=O)c2ccc(OC)cc2)NC(=O)NC1c1ccccc1 (stereo unspecified)	12	-1.6	.	.	.
O=C(NCCCO)C(=O)Nc1cc2c3c(c1)CCN3C(=O)CC2	0	-2.5	.	.	.
COc1cccc(CNC(=O)C(=O)NCC2CCCO2)c1 (stereo unspecified)	-12	-0.2	5	-20	-5%

In the list so far, these contain a furan ring, fused or not:
SMILES	Mtb bLac sens	RecA splice inh	Arbovirus anti	YopH PTP inh	Mtb growth	others
CCOc1ccccc1NC(=O)CSc1nnc(-c2ccccc2Cl)n1Cc1ccco1	4	7.6	8	-34	4%
CCc1ccccc1N1CN(Cc2ccco2)CNC1=S	-7	-2.3	.	.	-7%
Cc1nn(C)cc1NC(=O)CCSc1nc(-c2ccco2)cc(C(F)(F)F)n1	-3	2.6	1	-9	-3%
Cc1ccc(NC(=O)CCNC(=O)c2ccco2)cc1	-5	0.5	-9	15	3%
C=CCN1CCN(C(CCC)c2nnnn2Cc2ccco2)CC1 (stereo unspecified)	-2	3.0	0	.	-5%
CCCCn1c(SCC(=O)OCC)nnc1-c1ccoc1C	-3	-1.7	1	-55	-11%
CCNS(=O)(=O)c1ccc(NC(=O)c2ccc(Cn3cc([N+](=O)[O-])cn3)o2)cc1	-6	-1.4	4	.	2%
O=C(Nc1ccccc1-c1ccccc1)c1ccco1	17	2.2	-6	-29	-1%
COc1ccccc1Cn1c(-c2ccco2)nc2nc3ccccc3nc21	-4	-2.9	.	-5	-7%
CCOC(=O)c1ccc(N2C(=O)C3ON(c4ccccc4)C(c4ccco4)C3C2=O)cc1 (stereo unspecified)	0	2.4	-2	-2	0%	Arbovirus anti repeat=-2
